Screening results (PubChem BioAssay)
Autofluor counter: counter-screen for toxin protease inhibitors: compound fluorescence; compound autofluorescence counterscreen, microsphere flow cytometry; active compounds read high; fluorescence intensity (concentration not given with the values); 3.1% of 360,000 active;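 active = at least 3 SD above the mean of all compounds, about 16000 in these data; inconclusive = too few beads counted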;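 also: 100 nL of 1 mM stock went into each well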
Mtb hypoxia rep: Mtb hypoxia fluorescent reporter inhibition | M. tuberculosis hypoxia-regulated fluorescent reporter, fluorescence | fluorescence inhibition, % (concentration not given with the values) | 0.1% of 300,000 active | AID 1159583;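 active = 35 to 45% if threefold the growth effect, above 45% if 1.5-fold the growth effect; inactive = the rest, general growth blockers included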;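 also: wells of about 50 µL received 100 nL stock; 0% = vehicle wells and 100% = reference inhibitor wells; whole bacteria with a GFP reporter of the hypoxia response; strong numbers were not always called active; many hits fall short of the cut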
Sa ugtP lethal: growth inhibition of S. aureus ugtP deletion strain; S. aureus RN4220 ugtP deletion, OD600 growth, 16 h; some inactives read as strong as hits; growth inhibition, % (no concentration beside the values); 0.54% of 330,000 active;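 active = z-score under -3 and OD600 up to 0.15 on both plates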;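 also: plate controls were untreated wells for no effect and antibiotic for full effect; wells of about 80 µL received 100 nL stock; the first replicate is given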
BJeLR lethal: BJeLR cell viability loss; AID 1554; BJeLR (HRASV12) viability, CellTiter-Glo ATP luminescence, 48 h; reference of the scale not given here; inhibition, % (concentration not given with the values); 0.17% of 300,000 active;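 active = replicate mean above 50%; inconclusive = above 50% but judged a plate artefact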;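 also: 50 nL library stock added to about 25 µL; numbers are from one replicate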
PrP UTR inh: inhibition of PrP 5' UTR reporter expression. cell-based PrP 5' UTR mRNA reporter, plate reader. inhibition, % (test concentration not listed). 0.35% of 340,000 active;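 active = every replicate at 50% or more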;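 also: 0 = median of the neutral control wells; tested in H4 reporter cells; numbers are from one replicate; inactives centre near -14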
RN4220 kill: S. aureus RN4220 growth inhibition | OD600, 16 h | inhibition, % (no concentration beside the values) | 0.33% of 330,000 active;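 active = z-score of -3 or lower and OD600 up to 0.18 on both plates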;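 also: plate controls were untreated cells for no effect and reference antibiotic for full effect; stock transfer was 100 nL into about 80 µL; one replicate is shown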
Mtb hypoxia rep growth: recorded beside Mtb hypoxia rep, whose call it bears; growth inhibition, %; measured here: M. tuberculosis growth (absorbance);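 0% = vehicle and 100% = reference antibiotic; read after six days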
An asterisk follows results filed as active; ? = inconclusive; . = no result given; & = joins results of further samples.

canonical_smiles	Autofluor counter	Mtb hypoxia rep	Mtb hypoxia rep growth	Sa ugtP lethal	BJeLR lethal	PrP UTR inh	RN4220 kill
c1ccc(Sc2cnc3ccccc3n2)cc1	2465	11	4	4	-5	-73	8.1
Cc1ccc(N(CC(=O)NCc2ccccn2)S(=O)(=O)c2ccccc2)cc1Cl	?	17	-2	13	-7	-13	4.5
COCCn1nnnc1CN1CCC(O)(c2cccc(C(F)(F)F)c2)CC1	8035	4	-6	8	10	-16	1.7
O=C(Nc1ccc2nc[nH]c2c1)c1ccco1	4116	5	4	3	0	-28	1.6
NNC(=O)CSCc1nc(-c2ccccc2)cs1	5780	-10	10	2	-6	-15	-1.5
CN1CCN(CCC(=O)Nc2ccc3c(c2)OCO3)CC1	4065	.	.	3	-3	-15	0.6
COc1cc2c(cc1OC)C(c1ccccc1)CC2=O (stereo not given)	6487	11	-4	9	-4	-16	3.1
O=C(CCN1C(=O)c2ccccc2C1=O)NCc1ccncc1	9474	18	0	6	-10	-23	5.6
Cc1ccc(C(=O)Nc2c(C)n(C)n(-c3ccccc3)c2=O)cc1S(=O)(=O)N1CCOCC1	2306	5	5	6	-4	-17	0.7
Cc1cc([N+](=O)[O-])nn1Cc1noc(C(=O)NCCc2ccccn2)n1	3616	1	7	7	1	-17	1.9
CCOC(=O)C1CCN(C(=O)Nc2ccccc2Cl)CC1	10464	-4	-2	-4	1	-19	-4.3
O=C(Cn1c2ccccc2c2nc3n(c(=O)c21)CCS3)Nc1ccccc1C(F)(F)F	3282	-13	3	-8	3	7	1.7
CC(=O)CCc1ccc(OCC(=O)Nc2cccc(S(=O)(=O)N(C)c3ccccc3)c2)cc1	5317	-2	14	4	.	13	1.3
CC12C=CC(=O)C=C1CCC1C2C(O)CC2(C)C1CCC2(C)O (stereo not given)	4150	8	8	-6	.	12	6.2
N#CCCn1nc(-c2ccccc2)cc1Nc1ccccc1NC(=O)C(F)(F)F	2010	7	9	-9	14	-11	4.4
CCN(CC)c1ccc(S(=O)(=O)N2CCOCC2)cc1NC(=O)CNCc1ccccc1	3566	.	.	.	-5	3	.
CC(C)C(NS(=O)(=O)c1cccc2nsnc12)C(=O)N1CCCCC1 (stereo not given)	5667	2	3	10	-6	8	3.4
CC1CN(C(=O)/C=C/c2ccccc2Cl)CC(C)O1 (stereo not given)	4209	18	9	7	2	-75	0.9
COC(=O)C1=C(c2cccc(OCc3ccccc3)c2)CC2CCC1N2C(=O)NCc1cc(C)oc1C(F)(F)F (stereo not given)	.	5	10	1	.	.	-4.5
CC(C)c1ccc(Oc2cccc(C(=O)/C(C#N)=C/N(C)C)c2)cc1	2344	.	.	11	0	1	8.9
CC(C)CC(=O)Nc1sc2c(c1C(=O)O)CCCCC2	3113	9	4	0	2	-31	10
Cc1nnc(NC(=O)NC(C)N2C(=O)C3C4C=CC(C4)C3C2=O)s1 (stereo not given)	4013&3239	-2&0	2&3	0&-5	-10	-16&-19	3.0&-4.3
COc1ccc(C)cc1NC(=O)CNc1ccc(C(C)=O)cc1	2359	.	.	3	-4	-13	3.5
CCCCn1c(N)c(NCc2ccccc2OC)c(=O)[nH]c1=O	4557	7	1	8	-4	-14	7.2
COc1ccc(C(=O)c2ncc(C(F)(F)F)cc2Cl)cc1	4343	2	1	-7	6	-14	-1.3
Cc1cccc(NC(=O)CN(CC2CCCO2)C(=O)c2ccc(S(C)(=O)=O)cc2)c1C (stereo not given)	4777	10	16	6	.	-22	2.5
Cc1cnc(C(=O)OC(C)C(=O)Nc2ccc(Cl)cn2)cn1 (stereo not given)	?	5	1	-4	-12	-10	-0.4
CCn1cc([N+](=O)[O-])c(C(=O)N2N=C(c3ccc(O)c(OC)c3)CC2c2ccccc2O)n1 (stereo not given)	3829	11	8	-11	2	-22	1.1
Cc1cccc(NC(=S)NNC(=O)CCn2nc(C)c([N+](=O)[O-])c2C)c1	15439	4	4	-4	-9	-8	0.2
O=C(CCCSc1nc2ccccc2s1)Nc1nccs1	10026	12	5	-4	-7	-37	7.8

The listing continues:
canonical_smiles	Autofluor counter	Mtb hypoxia rep	Mtb hypoxia rep growth	Sa ugtP lethal	BJeLR lethal	PrP UTR inh	RN4220 kill
CCOc1ccccc1NC(=O)CSc1nnc(-c2ccco2)n1Cc1ccco1	21394*	-1	-5	6	-2	-2	-2.2
COc1ccc(N2CCN(C(CNC(=O)C(=O)NCCc3c[nH]c4ccccc34)c3ccco3)CC2)cc1 (stereo not given)	2775	14	3	13	-4	15	7.4
CCC1Nc2ncnc(N3CCN(c4ccccn4)CC3)c2N(Cc2ccc(Cl)cc2)C1=O (stereo not given)	3063	3	6	2	0	-12	5.7
Cc1ccc(C)c(NC(=O)c2ccc3c(=O)n4c(nc3c2)CCC4)c1	?	-5	1	4	.	-39	4.5
CCOC(=O)C1=C(C)NC(=O)NC1/C=C\c1ccccc1 (stereo not given)	3441	17	8	8	-2	-5	2.1
CS(=O)(=O)N1CCC(C(=O)Nc2ccc3c(c2)OCO3)CC1	10767	10	3	7	-8	-33	5.5
COc1ccc(NC(=O)CC2(Cc3ccccc3)CCOC(C)(C)C2)cc1 (stereo not given)	1851	2	1	1	3	-12	2.4
C/C(=N\NC(=O)c1ccccn1)C12CC3CC(CC(C3)C1)C2	10531	.	.	.	16	-47	.
CCc1nc2ccccc2c(C(=O)NCc2ccc(OC)cc2)c1C	4985	-6	4	-14	0	-3	-3.2
Cc1ccc(OCCCC(=O)NC(C)c2ccccc2)c(C)c1 (stereo not given)	?	-4	4	0	-6	-27	3.4
CC1CN(S(=O)(=O)c2ccc(C(=O)Nc3ccccc3F)cc2)CC(C)O1 (stereo not given)	2807	-1	-3	3	.	-14	-1.9
O=C(Nc1cccc2cccnc12)c1cccc(N2C(=O)CCC2=O)c1	2944	-5	6	-5	-5	-3	0.3
CN1CCc2nc(SCc3ccc(Cl)cc3)c(C#N)c(-c3cccs3)c2C1	.	1	-3	28	-6	.	-4.6
N#C/C(C(=O)N1CCOCC1)=c1/s/c(=C\c2ccccn2)c(=O)n1-c1ccccc1	4433	.	.	.	8	-18	.
CC(C)(C)c1ccc(N2C(=O)CC(c3ccccc3)C2=O)cc1 (stereo not given)	3100	8	10	4	0	-10	0.5
O=C(NC1CC2CCCC(C1)N2Cc1cccs1)N1CCOCC1 (stereo not given)	4032	4	6	1	10	-19	1.7
O=C(CCc1nnc2ccc(NCc3ccco3)nn12)Nc1ccc(F)cc1F	5614	-9	3	7	-5	-23	2.2
CC1(c2nnc(-c3ccncc3)o2)CC(c2ccc(F)cc2)=NO1 (stereo not given)	2407	.	.	.	10	7	.
CC(=NNC(=O)CNC(=O)COc1ccccc1)c1ccco1	.	-3	11	2	.	.	5.3
CC(=O)c1cccc(NC(=O)c2ccc3c(c2)CCN3S(=O)(=O)c2ccccc2)c1	4529	-2	4	-6	0	-4	-1.7
CCC(=Nc1ccc2c(c1)CCC2)c1c(O)n(C)c(=O)n(C)c1=O	.	3	-2	-2	8	3	4.5
CCOC(=O)Cc1c(C)nc(-c2ccccc2)[nH]c1=O	4788	.	.	8	8	4	4.3
Cc1cc(C(F)(F)F)nn1CCCNC(=O)c1cnccn1	23254*	2	9	-2	-2	15	-2.2
C#Cc1ccc([C@@H]2C=C(C(=O)O)O[C@H](OCc3ccc(CO)cc3)C2)cc1	3030	.	.	.	-3	5	.
CCOc1ccc(C(C)=O)cc1COC(=O)CCc1cc(OC)c(OC)c(OC)c1	3972	-7	-5	-4	-3	-16	5.1
CCOc1cccc(CN2CCCC(C(=O)c3cc(Cl)ccc3OC)C2)c1O (stereo not given)	3399	3	-1	0	-12	-8	-3.3
O=C(C[n+]1cccc(NC(=O)c2ccccc2)c1)c1cccc([N+](=O)[O-])c1	2218	1	-6	1	1	-28	2.1
O=C(CN1C(=O)NC2(CCCCC2)C1=O)NCCC1=CCCCC1	11402	15	9	3	-8	-11	2.4
CCCCc1c(C(=O)O)cc(OC)cc1C(=O)O	3805	8	7	-3	4	-19	1.9
COc1ccnc2c1c(=O)n(Cc1ccccc1Cl)c(=O)n2C	5786	11	4	0	-10	-7	-0.1

The listing continues.
canonical_smiles	Autofluor counter	Mtb hypoxia rep	Mtb hypoxia rep growth	Sa ugtP lethal	BJeLR lethal	PrP UTR inh	RN4220 kill
CC(=O)Nc1ccc(OCC(=O)c2ccc(C)cc2C)cc1	3220	7	-1	6	-14	11	4.2
Cc1ccc(S(=O)(=O)N(Cc2ccc([N+](=O)[O-])cc2)C(=O)N2CCN(C)CC2)cc1	11554	-10	2	1	0	-19	3.4
Cc1nc2ccccc2c(=O)n1NS(C)(=O)=O	4856	.	.	-14	1	-16	3.6
O=C(NOCc1ccccc1)c1coc(-c2ccccc2)n1	3041	-7	-2	-7	.	-16	-2.3
O=C(COc1ccc(Cl)cc1)Nc1ncccn1	8590	6	10	3	6	-47	1.5
COc1ccc(-c2nn(Cc3ccccc3)cc2C(=O)N2CCN(c3ccccn3)CC2)cc1OC	5031	10	2	4	.	-8	3.7
CCOC(=O)/C(C#N)=C1/SC(C)C(=O)N1c1ccc(Br)cc1 (stereo not given)	15291	11	5	9	-8	-21	4.7
CC(C)c1ccc(NC(=O)CCN2C(=O)c3ccc([N+](=O)[O-])cc3C2=O)cc1	9974	4	9	7	6	-24	-1.1
O=C(O)CSc1ccc(NC(=O)Nc2ccccc2F)cc1	3970	6	5	10	13	2	3.2
COCc1nnc(NC(=O)C2CC(=O)N(C3CCCC3)C2)s1 (stereo not given)	5656	-5	4	3	0	-15	0.9
O=C(Nc1cccc(F)c1)C(=Cc1cccnc1)NC(=O)c1ccco1	.	1	-1	-5	.	.	-1.2
c1nc(COc2nsnc2N2CCOCC2)cs1	2528	.	.	14	-5	0	2.8
CCCOc1ccc(NC(=O)CCC(=O)NC(C)c2ccccc2)cc1 (stereo not given)	4089	-7	-3	5	-16	-29	0.7
CC(=O)C1=C(O)CC(C)(C)CC1=NCCc1nc2ccccc2[nH]1	5190	17	8	6	-6	-7	13

Of the compounds above, eleven contain fluorine:
canonical_smiles	Autofluor counter	Mtb hypoxia rep	Mtb hypoxia rep growth	Sa ugtP lethal	BJeLR lethal	PrP UTR inh	RN4220 kill
COCCn1nnnc1CN1CCC(O)(c2cccc(C(F)(F)F)c2)CC1	8035	4	-6	8	10	-16	1.7
O=C(Cn1c2ccccc2c2nc3n(c(=O)c21)CCS3)Nc1ccccc1C(F)(F)F	3282	-13	3	-8	3	7	1.7
N#CCCn1nc(-c2ccccc2)cc1Nc1ccccc1NC(=O)C(F)(F)F	2010	7	9	-9	14	-11	4.4
COC(=O)C1=C(c2cccc(OCc3ccccc3)c2)CC2CCC1N2C(=O)NCc1cc(C)oc1C(F)(F)F (stereo not given)	.	5	10	1	.	.	-4.5
COc1ccc(C(=O)c2ncc(C(F)(F)F)cc2Cl)cc1	4343	2	1	-7	6	-14	-1.3
CC1CN(S(=O)(=O)c2ccc(C(=O)Nc3ccccc3F)cc2)CC(C)O1 (stereo not given)	2807	-1	-3	3	.	-14	-1.9
O=C(CCc1nnc2ccc(NCc3ccco3)nn12)Nc1ccc(F)cc1F	5614	-9	3	7	-5	-23	2.2
CC1(c2nnc(-c3ccncc3)o2)CC(c2ccc(F)cc2)=NO1 (stereo not given)	2407	.	.	.	10	7	.
Cc1cc(C(F)(F)F)nn1CCCNC(=O)c1cnccn1	23254*	2	9	-2	-2	15	-2.2
O=C(O)CSc1ccc(NC(=O)Nc2ccccc2F)cc1	3970	6	5	10	13	2	3.2
O=C(Nc1cccc(F)c1)C(=Cc1cccnc1)NC(=O)c1ccco1	.	1	-1	-5	.	.	-1.2
